gsp ag – gsp mutant agonism; gsp mutant cells, cAMP HTRF, 30 min; control for the full effect not named in the record; Potency, µM (top dose mostly 76.9 µM), inactives show at the highest dose activation (cAMP increase), most hits filed as activators; 340,000 tested, 0.13% active; active = well fitted activation curve with a large enough effect; inconclusive = small, poorly fitted or top-dose-only effect, or another doubt; inactive = no such curve, though single readings can be large or run the other way; cell line not stated here;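 note: phosphodiesterase inhibitor Ro 20-1724 added with compounds to block cAMP breakdown; potency is the fitted concentration of half-maximal effect; nearly all actives have a fitted effect of over 60% in size; about a fifth of the inactives were tested at one dose only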
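Cells in DMEM/10% FBS with G418 were pretreated with compounds in DMSO plus […] (300 uM stock) for 30 min at 37C. cAMP was measured by HTRF (cAMP-d2 plus anti-cAMP antibody-K) after 30 min at room temperature.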
D2 agonist – human D2 receptor agonism in beta-arrestin assay. activation, % (no concentration beside the values). 360,000 tested, 0.084% active. DiscoveRx PathHunter D2 beta-arrestin, luminescence, 90 min; 100% = 57 uM dopamine signal. AID 624465. P14416; in the data active = activation above about 40%; inconclusive = about 15% to 40%; inactive = below about 15%; note: compound concentration not given in the record; the text of the record calls up to 30% inactive
Target sequence (P14416 whole entry, looked up): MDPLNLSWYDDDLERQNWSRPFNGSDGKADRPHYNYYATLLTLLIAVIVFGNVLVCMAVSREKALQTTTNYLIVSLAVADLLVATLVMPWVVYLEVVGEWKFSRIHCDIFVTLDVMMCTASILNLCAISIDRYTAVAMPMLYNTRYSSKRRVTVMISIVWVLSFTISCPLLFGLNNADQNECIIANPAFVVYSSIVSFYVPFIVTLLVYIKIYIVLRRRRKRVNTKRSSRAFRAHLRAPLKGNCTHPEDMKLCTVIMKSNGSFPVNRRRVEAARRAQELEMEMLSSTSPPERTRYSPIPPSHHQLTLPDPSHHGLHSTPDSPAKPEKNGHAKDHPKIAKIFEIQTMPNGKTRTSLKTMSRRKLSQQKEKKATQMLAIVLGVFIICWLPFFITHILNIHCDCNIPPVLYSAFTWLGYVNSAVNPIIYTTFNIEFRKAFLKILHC
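DiscoveRx PathHunter D2 beta-arrestin cells (2,100/well) attached overnight, then compound-stimulated 90 min at 37 C in HBSS/10 mM HEPES/0.1% Tween-20 buffer; beta-galactosidase complementation read by luminescence after 1 h at ambient temperature. Dopamine 57 uM final (EC100) as control.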
D2 PAM – positive allosteric modulators of human D2 dopamine receptor; P14416; DiscoveRx D2 beta-arrestin cells, luminescence, 90 min; 100% = 57 uM dopamine signal; potentiation, % (no concentration beside the values); 360,000 tested, 0.23% active; AID 624464; active = potentiation of 50% or more; inconclusive = 30% to 50%; inactive = 30% or less;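 note: compound concentration not given in the record; tested on top of an EC20 dose of dopamine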
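D2 cells co-treated with compound plus 50 nM dopamine (EC20) for 90 min at 37 deg C to detect potentiation. Beta-arrestin recruitment was read as enzyme-fragment luminescence after 1 h at ambient temperature. Full response was set by 57 uM dopamine.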
CtBP-E1A blk – CtBP/E1A binding inhibition; 340,000 tested, 0.49% active; AID 651724; AlphaScreen GST-E1A/His-CtBP binding, 1536-well; stronger effect = lower value; control for the full effect not named in the record; activity change, % (concentration not given with the values); in the data active means activity change below about -65%; inconclusive means about -30% to -65%; inactive means above about -30%; note: % is set by controls: 0 for no effect and ±100 for the full control effect
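Protein mix (5X: 125 nM each GST-E1A, His-CtBP) was incubated with pinned compound 2 h at 37 deg C in dark, in 50 mM Tris pH 8.0 buffer with 300 mM NaCl. Glutathione donor and nickel acceptor beads followed; AlphaScreen signal read after 1 h.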
gsp antag – antagonists of gsp mutant (McCune-Albright syndrome) | Potency, µM (titrated, usually from 76.9 µM), inactives show at the highest dose activity change, negative = inhibition, usual class: inhibitors | AID 624288 | 340,000 tested, 0.4% active | gsp-mutant cells, cAMP HTRF, 30 min; control for the full effect not named in the record; active = falling curve of any shape with a large fitted effect; inconclusive = falling curve, mostly with a smaller effect; inactive = flat or rising curve; cell line not stated here;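 note: intracellular cAMP measured with PDE inhibitor Ro 20-1724 present during compound exposure; potency is the fitted concentration of half-maximal effect; % is set by controls: 0 for no effect and ±100 for the full control effect; nearly all actives have a fitted effect of over 65% in size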
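Measurement of cellular cAMP by homogeneous time-resolved fluorescence following a 30 min compound exposure at 37C. The PDE inhibitor […] was present throughout; the assay buffer was DPBS with 0.05% BSA and 0.005% Tween 20.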
Six1-Eya2 blk – inhibitors of human Six1/Eya2 interaction. Q15475+O00167. AlphaScreen GST-Six1/His-Eya2 binding, biochemical; stronger effect = lower value; control for the full effect not named in the record. activity change, % (concentration not given with the values). 360,000 tested, 0.56% active. AID 651725; in the data active = activity change below about -65%; inconclusive = about -30% to -65%; inactive = above about -30%; note: % is set by controls: 0 for no effect and ±100 for the full control effect
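Homogeneous AlphaScreen proximity assay pairing GST-Six1 with His-tagged Eya2 (added as 5X mix: 250 nM and 500 nM) in 50 mM Tris pH 8.0, 300 mM NaCl, 1 mM TCEP. Glutathione donor and nickel acceptor beads; 1 h, 37 °C, dark.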
* = called active by the depositor; ? = inconclusive; . = no result given; & = joins results of further samples; [ ] = another dose, or the depositor's remark. Hits appear at their usual frequency, and some 1.4% of all compounds hit somewhere here.

SMILES	gsp ag	D2 agonist	D2 PAM	CtBP-E1A blk	gsp antag	Six1-Eya2 blk
CCOc1ccc(CCNC(=O)c2nnc(CS(=O)(=O)c3ccccc3)o2)cc1OCC	16%	-2.1	-3	-10	-7%	-7
COc1ccc(/C=N/Nc2nc(N)cc(Cl)n2)cc1OC	?	-2.1	4	-14	-4%	-6
Cc1ccccc1NC(=O)CN1C(=O)CSc2ccc(S(=O)(=O)N3CCCC3)cc21	-16%	-4.3	-6	4	4%	1
O=c1[nH]c2ccccc2nc1/C=C(\O)C1CC1	-11%[15.4 µM]	-3.4	-10	11	3%	10
COCCN(Cc1ccc(OC)cc1)c1c(C)nc2ccc(C(=O)Nc3ccc(NC(C)=O)cc3)cn12	.	3.0	-3	0	.	3
Cc1noc(/C=C/c2ccccc2F)c1S(=O)(=O)N1CCC(C(=O)N2CCN(C)CC2)CC1	24%	5.9	-8	-1	7%	-1
COc1ccccc1N1CCN(C(=O)C2Cc3ccccc3CN2C(=O)c2ccco2)CC1 (stereo not drawn)	-17%	-4.2	-21	-12	-5%	-1
COc1cc2c(cc1NC(=O)C(C)OC(=O)c1ccc(S(=O)(=O)Nc3ccccc3Cl)cc1)oc1ccccc12 (stereo not drawn)	5%	1.7	-2	5	?	-8
COc1ccc(NC(=O)C2CCCN(c3cc(C)nc4ncnn34)C2)cc1 (stereo not drawn)	-6%[15.4 µM]	2.1	3	0	-8%	-17
Clc1ccccc1CSc1nnc(Cn2cnc3ccccc32)n1-c1ccccc1	-26%	-2.9	-22	4	0%	4
CC(C)[C@H](NC(=O)N1c2ccccc2NC(=O)[C@@H]1C(C)C)C(=O)N1CCC(C(=O)O)CC1	.	-5.0	-14	4	-2%	5
CCCCNC(=O)CS(=O)Cc1nc(-c2cccc(C)c2)oc1C (stereo not drawn)	0%	-4.2	-5	1	0%	-1
COc1cc2c(cc1OC)CN(C(=O)CCNC(=O)c1ccc(Br)cc1)CC2	-2%	-5.6	-43	16	0%	-1
CC(C)C(=O)NCc1cc(-c2ccccc2)no1	-1%	0.5	-22	-1	8%	1
CC(=O)c1cccc(NC(=O)C(C)OC(=O)c2cc(C)oc2C)c1 (stereo not drawn)	-4%[15.4 µM]	-0.1	-2	-1	-8%	3
CC(C)(C)NC(=O)C1(C)CCC(=O)N1C1CCN(Cc2ccccc2)CC1 (stereo not drawn)	.	-4.3	-8	14	.	-1
COCC1CCN(C(=O)CCc2nnc(CCCCc3ccccc3)o2)CC1	14%[15.4 µM]	0.3	-3	2	8%	7
CC(CC(=O)Nc1cc(C(F)(F)F)ccc1Cl)c1ccccc1 (stereo not drawn)	?	-1.9	-11	22	-5%	29
Cc1nnc(NC(=O)c2nc(S(=O)(=O)Cc3ccccc3C)ncc2Cl)s1	11%	-7.6	-9	-25	?	-25
CCCNC(=O)CN(c1ccccc1)S(=O)(=O)c1ccc(OC)c(OC)c1	7%	-3.3	-13	0	-6%	-1

Four of the compounds above, with bars between the fields:
SMILES | gsp ag | D2 agonist | D2 PAM | CtBP-E1A blk | gsp antag | Six1-Eya2 blk
COc1ccc(NC(=O)C2CCCN(c3cc(C)nc4ncnn34)C2)cc1 (stereo not drawn) | -6%[15.4 µM] | 2.1 | 3 | 0 | -8% | -17
CCOc1ccc(CCNC(=O)c2nnc(CS(=O)(=O)c3ccccc3)o2)cc1OCC | 16% | -2.1 | -3 | -10 | -7% | -7
CC(=O)c1cccc(NC(=O)C(C)OC(=O)c2cc(C)oc2C)c1 (stereo not drawn) | -4%[15.4 µM] | -0.1 | -2 | -1 | -8% | 3
CC(C)[C@H](NC(=O)N1c2ccccc2NC(=O)[C@@H]1C(C)C)C(=O)N1CCC(C(=O)O)CC1 | . | -5.0 | -14 | 4 | -2% | 5

Later entries
SMILES	gsp ag	D2 agonist	D2 PAM	CtBP-E1A blk	gsp antag	Six1-Eya2 blk
COc1cc([N+](=O)[O-])cc(/C=N/NC(=O)C(O)(c2ccccc2)c2ccccc2)c1O	-56%[inhibitor]	-9.8	-3	-82*	-18%	?
CCCCCCCCCCSc1n[nH]c(NC(C)=O)n1	-9%	-2.1	-13	5	-2%	0
O=[N+]([O-])c1ccccc1N=Nc1c(O)[nH]c2ccc(F)cc12	7%	-0.9	-10	1	-2%	-18
CCn1c(=O)cc(SCC(=O)N(C)Cc2ccccc2)c2ccccc21	6%	-2.3	-3	-7	-19%	-4
COc1ccc(S(=O)(=O)N/N=C(/C)c2cccc(NC(=O)c3ccccc3Cl)c2)cc1	-14%	6.2	-6	6	-27%	4
C=CCn1c(N)cc(=O)nc1SCC(=O)Nc1ccc(C(=O)OCC)cc1	9%	-4.3	-4	-6	2%	-7
O=C(NC1CC1)c1cc(=O)c2ccccc2o1	-13%	-3.2	-11	-3	-3%	3
Cn1c(C(=O)OC(C(=O)NC2CCCCC2)c2ccccn2)cc2sccc21 (stereo not drawn)	-17%	-4.4	-16	-13	-19%	-7
O=C(CCCc1nc2ccccc2s1)NC1CCOC1=O (stereo not drawn)	1%	8.2	1	4	7%	0
COc1ccccc1C(=O)Oc1ccc2c(c1)O/C(=C\c1ccncc1)C2=O	-4%	-3.4	1	-17	1%	-7
O=C(C[C@H]1C(=O)N(CCc2ccccc2)C[C@@H]1Cc1ccccc1)Nc1ccccc1	23%	-8.7	-10	1	-12%	-11
COc1ccc2ccccc2c1CN1CCN(C(=O)c2ccccc2)CC1	8%	-1.5	-12	-10	-16%	-14
O=C(NC(=S)N1CCc2ccccc21)c1ccc(Br)o1	-16%[15.4 µM]	-3.9	-13	4	-6%	-8
CCOc1ccc(N(CC(=O)N2CCCCC2)S(=O)(=O)c2ccc(Cl)cc2)cc1	-7%	-1.9	-6	0	-12%	-2
CCCN(CCC)C(=O)c1cc([N+](=O)[O-])cc2c1-c1ccc([N+](=O)[O-])cc1C2=C(C#N)C#N	-59%[inhibitor]	2.8	-10	.	-16%	-10
CCOC(=O)c1[nH]c2c(c1C)C(=O)CC(c1ccc(N(C)C)cc1)C2 (stereo not drawn)	-27%	-2.3	-2	-12	?	-20
COCCCN1C(=O)C(=O)/C(=C(/O)c2ccc(S(=O)(=O)N3CCCCC3)cc2)C1c1ccc(O)c(OC)c1 (stereo not drawn)	0%	-1.3	1	5	2%	2
COc1ccc(CCNC(=O)c2c(C)nn(-c3ccccc3)c2Cl)cc1OC	2%	-2.7	-1	-1	0%	-7
Cc1cc(C(=O)CSc2nnc(-c3ccccc3)n2C)c(C)n1C	-3%	-1.6	-17	-6	-14%	-4
CN(C)CC#Cc1cncc(C(=O)NNC(=O)Nc2ccc(Cl)cc2)c1	17%[15.4 µM]	-4.7	-15	7	-13%	3
Cc1ccnc2nc(C(=O)OCC(=O)Nc3ccc4c(c3)OC(F)(F)O4)nn12	3%	1.9	1	9	-3%	4
NC(=O)c1ccsc1NC(=O)c1ccc2c(c1)CCCC2	-6%	2.5	5	-8	?	-15
CCN(CC)C(=O)C1CCCN(C(=S)Nc2cccc3ccccc23)C1 (stereo not drawn)	1%	-0.2	0	5	-5%	3
CCC(c1ccccc1)c1nc(-c2ccccn2)no1 (stereo not drawn)	-21%	-1.8	-11	4	6%	-2
CN(C)C(=O)C1(c2ccccc2)CCN(S(=O)(=O)c2ccccc2)CC1	-3%	2.5	-1	-1	5%	15
N#Cc1ccc(/C=C(\C(=O)C(=O)O)c2ccc3ccccc3n2)cc1	-5%	1.3	-7	-9	-13%	2
CN(CC(=O)Nc1cccc(F)c1)CC(=O)Nc1cccc(S(=O)(=O)N2CCCCCC2)c1	0%	-2.7	-12	.	?	-9
NS(=O)(=O)c1ccc(CNS(=O)(=O)c2cc(C(=O)O)ccc2Cl)cc1	2%	-1.1	-3	10	8%	0
O=C(OCCOCCN=C1NS(=O)(=O)c2ccccc21)c1ccncc1	7%	-2.5	-27	-2	5%	-5
Cc1cccc(NC(=O)CSc2nnc([C@@H]3CCCN3C(=O)OC(C)(C)C)o2)c1C	3%	-2.1	-10	1	3%	-1
OC1CCC(NC(=S)Nc2ccc(SC(F)F)cc2)CC1 (stereo not drawn)	24%	-2.7	0	-2	8%	-2
Cc1csc(C(=O)O)c1NC(=O)c1cccc([N+](=O)[O-])c1	5%[15.4 µM]	-4.6	0	-2	-2%	8
Cc1cc(NC(=O)CS(=O)(=O)c2cn(Cc3cccc(F)c3)c3ccccc23)no1	0%[15.4 µM]	2.1	11	-7	?	4
C[C@H]1CN([C@@H](C)CO)C(=O)CCCn2nncc2CO[C@@H]1CN(C)S(=O)(=O)c1cccc(C#N)c1	-41%[inhibitor]	-3.1	1	7	.	3
COc1ccc(Cl)cc1NCC(=O)Nc1ccc(OC)c(S(=O)(=O)N2CCCCC2)c1	12%	-3.0	-5	-17	-6%	-16
COC(=O)C(CO)NC(=O)C1CCCN1C(=O)CNC(=O)OCc1ccccc1 (stereo not drawn)	5%	-4.4	-4	3	11%	3
Cc1ccc(S(=O)(=O)N2[C@@H](c3cccc(Cl)c3)C(C(=O)OC(C)(C)C)=CC[C@H]2c2ccc(C(C)C)cc2)cc1	.	-3.0	-11	-1	.	13
Cc1cc(NC(=O)c2ccccc2F)nc2c1c(=O)oc1ccccc12	31%	-0.2	-7	-3	5%	-6
COc1ccccc1CN1CC(C(=O)N2CCN(c3ccc(F)cc3)CC2)CC1=O (stereo not drawn)	-17%	0.3	-11	8	-5%	0
Cc1ccc(NS(=O)(=O)c2ccc(N/N=C/c3ccccc3OCC(=O)O)c([N+](=O)[O-])c2)c(C)c1	-2%	-8.5	-21	?	-17%	-21
CC(NC(=O)Cc1ccsc1)c1ccc(Cl)cc1Cl (stereo not drawn)	2%	-3.8	-3	-2	-13%	8
COc1ccc(NC(=O)C2C3C=CC4(O3)C2C(=O)N(CCN2CCCCC2C)C4C(=O)NC2CCCCC2)cc1 (stereo not drawn)	5%[15.4 µM]	-3.9	-11	3	7%	-4
Cc1ccc(NC(=S)N2CCN(C3CCCCC3)CC2)cc1	9%	-1.6	-13	3	12%	-1
Cc1ccc(Cl)cc1N(CC(=O)N1CCOCC1)S(C)(=O)=O	5%	9.1	3	.	5%	-1
Cc1ccc(C(=O)Nc2ccc3c(c2)OCCO3)c(C)c1	-19%	-2.1	-4	6	-6%	1
CCN(CC)C(=O)CSC1=C(C#N)C(c2ccco2)C(C(=O)OCCOC)=C(C)N1 (stereo not drawn)	-34%&1%[inhibitor]	-1.7&-0.4	-16&-12	-1&11	-11%&-8%	-2&1
COc1ccc(OC)c(C2C(C(=O)c3ccc(C)o3)=C(O)C(=O)N2CCCN2CCOCC2)c1 (stereo not drawn)	-52%[inhibitor]	-0.5	-22	-9	11%	-4

Screens as filed in PubChem BioAssay.
